Compound activity (PubChem BioAssay)
LMNA splice mod = modulators of lamin A splicing | Potency, µM (highest dose often 46.1 µM), for inactives: at the top dose ratio change, negative = inhibition, usual class: inhibitors | HeLa LMNA splicing GFP/RFP minigene ratio, 48 h | hit rate 0.01% among 200,000; active means well fitted inhibition curve with a large enough effect in the signal ratio, with a control signal flat, not every such curve was filed as active; inconclusive means small, poorly fitted or top-dose-only effect, or effect the other way, or a change in a side signal; the % refers to the signal ratio; further: on the % scale 0 is the no-effect control and ±100 the full control effect
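S3 HeLa cells stably expressing lamin A-EGFP splicing minigene plus DsRed2, 600 cells/well, 48 h compound exposure at 37C. Laser-scanning cytometry; analysed as GFP (500-530 nm)/RFP (575-640 nm) total intensity ratio; 0.5% DMSO vehicle.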
SMN2 splice enh = enhancers of SMN2 splice variant expression; Potency, µM (top dose mostly 46.1 µM), for inactives: at the highest dose activity change, positive = activation, usual class: activators; HEK293 SMN2-luciferase splicing reporter, luminescence, 30-36 h; hit rate 2.8% among 210,000; further: % of control where 0% means no effect; nearly all actives have a fitted effect of over 55% in size
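HEK293 cells carry an SMN2 minigene-luciferase reporter in which exon 7 inclusion puts luciferase in frame. Cells were seeded at 2000 cells/well, attached for 10-12 hours, then exposed to compounds for 30-36 hours at 37C before ONE-Glo luminescence.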
RECQ1 helicase = RECQ1 (human) helicase inhibition. RECQ1 DNA unwinding, red fluorescence kinetic read. hit rate 0.54% among 240,000. AID 2549. P46063. Potency, µM (doses to about 57.3 µM), without a hit: top-dose activity, negative = inhibition, most hits filed as inhibitors;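 further: plate controls were vehicle for no effect and no enzyme for full effect; nearly all actives have a fitted effect of over 30% in size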
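RECQ1T1 50 nM; forked duplex (20 bp + 30-nt ss tails) 200 nM, ATP 2 mM final; pH 8.0, 2 mM MgCl2, 2.5 ug/ml poly(dI-dC); 15 min compound preincubation; discontinuous kinetic read over 2 h at RT.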
L3MBTL1 inh = inhibitors of human L3MBTL1; Q9Y468; AlphaScreen L3MBTL1–H3K9me1 peptide binding; Potency, µM (top dose mostly 57.1 µM), inactives show at the highest dose activity, negative = inhibition, hits mostly inhibitors; hit rate 0.66% among 230,000; further: on the % scale 0 is the no-effect control and ±100 the full control effect; nearly all actives have a fitted effect of over 60% in size
Target sequence (Q9Y468 whole entry, looked up): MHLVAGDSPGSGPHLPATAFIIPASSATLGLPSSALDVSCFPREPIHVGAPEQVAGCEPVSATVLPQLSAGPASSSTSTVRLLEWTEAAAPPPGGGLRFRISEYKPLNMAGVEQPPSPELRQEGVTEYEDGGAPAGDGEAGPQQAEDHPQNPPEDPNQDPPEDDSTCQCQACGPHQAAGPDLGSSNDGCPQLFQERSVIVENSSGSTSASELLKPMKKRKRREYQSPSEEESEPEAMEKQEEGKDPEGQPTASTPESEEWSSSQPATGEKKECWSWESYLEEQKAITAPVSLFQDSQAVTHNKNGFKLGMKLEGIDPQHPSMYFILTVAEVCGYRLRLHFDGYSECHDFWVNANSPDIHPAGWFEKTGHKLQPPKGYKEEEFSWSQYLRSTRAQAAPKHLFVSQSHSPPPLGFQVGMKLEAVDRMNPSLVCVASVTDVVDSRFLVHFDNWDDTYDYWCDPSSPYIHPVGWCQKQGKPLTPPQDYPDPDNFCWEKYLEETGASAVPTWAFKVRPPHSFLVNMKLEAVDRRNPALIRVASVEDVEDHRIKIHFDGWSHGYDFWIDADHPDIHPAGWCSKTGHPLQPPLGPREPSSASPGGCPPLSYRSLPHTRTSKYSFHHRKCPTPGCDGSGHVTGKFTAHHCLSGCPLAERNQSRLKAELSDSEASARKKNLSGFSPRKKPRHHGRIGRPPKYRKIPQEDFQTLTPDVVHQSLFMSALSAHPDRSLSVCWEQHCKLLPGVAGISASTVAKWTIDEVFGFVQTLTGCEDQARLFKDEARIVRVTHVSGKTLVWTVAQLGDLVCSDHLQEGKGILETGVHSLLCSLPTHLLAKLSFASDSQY
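Read-out is AlphaScreen signal from streptavidin donor and nickel chelate acceptor beads (10 ug/mL final each) bridging L3MBTL1 (50 nM) and biotinylated K9-monomethylated H3(1-15) peptide (75 nM), after 30 min compound exposure at room temperature.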
Tau ThT inhib = blocks human tau fibril formation measured by thioflavin T | P10636 | recombinant tau K18 P301L (four-repeat tau fragment), heparin-induced fibrillization, ThT fluorescence | AID 1460 | Potency, µM (doses to about 57.4 µM), for inactives: at the top dose activity, negative = inhibition, hits mostly inhibitors | hit rate 2.1% among 270,000; further: on the % scale 0 is the no-effect control and ±100 the full control effect; nearly all actives have a fitted effect of over 55% in size
Target sequence (P10636 561-689 P618L limits assumed): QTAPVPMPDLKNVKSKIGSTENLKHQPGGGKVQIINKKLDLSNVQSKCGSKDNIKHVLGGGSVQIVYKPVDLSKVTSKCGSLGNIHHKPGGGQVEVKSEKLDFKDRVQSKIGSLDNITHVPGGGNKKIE
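In this qHTS, human K18 P301L tau is incubated with compound and heparin for 6 hr at 37 C, and Thioflavin T fluorescence then reports fibril load.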
Luc counter = blocks Kinase-Glo luciferase, a counter-screen artifact | Q27757 | Kinase-Glo luciferase, ATP luminescence, 8 min | Potency, µM (doses to about 38.3 µM), inactives show top-dose activity change, negative = inhibition, most hits filed as inhibitors | hit rate 0.28% among 200,000 | AID 1379; further: on the % scale 0 is the no-effect control and ±100 the full control effect; nearly all actives have a fitted effect of over 60% in size
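Luminescence was the read-out, taken after 8-minute incubation at ambient temperature. Luciferase turned over luciferin with 10 uM ATP in imidazole pH 7.2 buffer containing KCl, MgCl2, Tween 20 and BSA.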
JMJD2E inh = inhibitors of human JMJD2E histone demethylase; B2RXH2; JMJD2E catalytic domain, FDH-coupled NADH fluorescence (FDH is formaldehyde dehydrogenase); Potency, µM (top dose mostly 57.1 µM), for the others: at the top dose activity change, negative = inhibition, most hits filed as inhibitors; hit rate 1.6% among 230,000; AID 2147; active means well fitted inhibition curve with a large enough effect, not every such curve was filed as active; inconclusive means small, poorly fitted or top-dose-only effect, or another doubt; inactive means no such curve, though single readings can be large or run the other way;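 further: 0% = wells with enzyme and -100% = buffer wells without enzyme; nearly all actives have a fitted effect of over 50% in size; many of its hits are not listed in these tables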
* hit, by the source's call; i = inactive; u = inconclusive; x = not tested or not shown; & = joins results of further samples; [ ] = another dose, or the depositor's remark. Unless noted, the call rests on the fitted dose curve; in most records, active means well fitted curve in the direction sought with a large enough effect; inconclusive means small, poorly fitted or top-dose-only effect, or another doubt; inactive means no such curve, though single readings can be large; an effect the other way counts as inactive or inconclusive. Potency means the concentration at half of the fitted maximal effect.

No.	Compound	LMNA splice mod	SMN2 splice enh	RECQ1 helicase	L3MBTL1 inh	Tau ThT inhib	Luc counter	JMJD2E inh
1	COC(=O)c1cccc(NC(=O)CSc2nnc(C)n2Cc2ccccc2)c1	7%	-16%	7%	-6%	-4%	1%	-3%
2	Cc1cc(C)nc(NC(=O)/C=C/c2ccc(Cl)cc2Cl)c1	-1%	10%	-12%	3%	-11%	-5%	u
3	CCOCCCNC(=O)C(c1ccccc1)N(Cc1cccs1)C(=O)CNC(C)=O (stereo unspecified)	-13%	-5%	-7%	0%	-1%	1%	6%
4	CCOc1ncccc1C(=O)OCC(=O)c1c(N)n(C)c(=O)n(C)c1=O	-4%	2%	i	2%	-4%	1%	0%
5	CCOc1ccccc1C(=O)Nc1cc(Cl)ccc1O	-10%	-27%	-3%	0%	u	4%	4%
6	O=C(Cn1cnc2c(nnn2-c2ccc(F)cc2)c1=O)NCC1CCCO1 (stereo unspecified)	-3%	-18%	-1%	-13%	-8%	0%	4%
7	C/C(=N\O)c1sc(-c2ccccc2)nc1C	x	16µM*	-1%	1%	-14%	-12%	-7%
8	O=[N+]([O-])c1cccc(-c2nnc(CNC3CC3)o2)c1	u	5%	-15%	-5%	-14%	-3%	-10%
9	CCn1c(N)c(Br)c(=O)[nH]c1=O	x	9%	i	3%	u	0%	-1%
10	O=C(COc1ccc(Cl)cc1Cl)Nc1ccccn1	-6%	-13%	9%	26%	-9%	1.6µM*	-4%
11	O=C(CN1CCCCC1)Nc1ccc(F)c(Cl)c1	8%	-6%	-1%	-2%	0%	-2%	-3%
12	CC(C)NC(=O)c1ccccc1NC(=O)C1COc2ccccc2O1 (stereo unspecified)	u	-44%[inhibitor]	-5%	6%	-13%	0%	-22%
13	COc1cccc(/C=C/C(=O)OCC(=O)Nc2cccc(S(=O)(=O)N(C)C)c2)c1	7%[46 µM]	-21%	i	x	-3%	-4%	u
14	COCC(C)NC(=O)c1cc(OC)cc(OC)c1 (stereo unspecified)	8%[46 µM]	19%	0%	1%	-3%	4%	-1%
15	O=C(N/N=C1/C[C@@H](O)[C@@H](O)[C@@H]2[C@@H]3C(=O)N(C4CCCCC4)C(=O)[C@H]3CC[C@@H]12)OCc1ccccc1	x	x	12%[11.5 µM]	x	-3%[11.5 µM]	x	x
16	Cc1c(C(=O)Nc2ccncc2)oc2c1C(=O)CC(C)(C)C2	u	-45%[inhibitor]	-6%	1%	3%	1%	-4%
17	CCOc1ccc(/C(O)=C2/C(=O)C(=O)N(CC3CCCO3)C2c2ccco2)cc1 (stereo unspecified)	-6%	3%	0%	u	-10%	3%	-5%
18	CCNc1nc(SCC(=O)OC)nc(N2CCOCC2)n1	7%	2%	-12%	0%	0%	-2%	5%
19	O=c1[nH]c2ccccc2nc1N1CCOCC1	7%	-8%	i	1%	-3%	7%	-3%
20	CCOC(=O)c1csc(NC(C)=O)n1	-2%[46 µM]	28%	0%	x	3%	0%	4%
21	COC(=O)[C@@]1(Cc2ccccc2)[C@H]2c3cc(C(=O)N(C)C)n(Cc4nc5ccccc5[nH]4)c3C[C@H]2CN1C(=O)c1ccccc1	x	-9%	0%	x	u	-3%	u
22	COc1cc(NC(=O)CN2C(=O)c3ccccc3S2(=O)=O)c(OC)cc1Cl	-2%	-4%	i	-3%	-5%	0%	-1%
23	COc1ccc(Br)cc1/C=N/NC(=O)Cn1nnnc1N	x	x	-10%	1%	0%	x	-5%
24	CC(=O)Nc1ccc(C(=O)N2CCCC2)cc1	3%	0%	-9%	-1%	-4%	-2%	1%
25	COC(=O)c1c(NC(=O)CC2SC(N)=NC2=O)sc2c1CCC(C(C)(C)C)C2 (stereo unspecified)	18%	-17%	-2%	-10%	u	-4%	u

In the list so far, two contain an aryl thioether with sulfur outside any ring.
No.	Compound	LMNA splice mod	SMN2 splice enh	RECQ1 helicase	L3MBTL1 inh	Tau ThT inhib	Luc counter	JMJD2E inh
1	COC(=O)c1cccc(NC(=O)CSc2nnc(C)n2Cc2ccccc2)c1	7%	-16%	7%	-6%	-4%	1%	-3%
18	CCNc1nc(SCC(=O)OC)nc(N2CCOCC2)n1	7%	2%	-12%	0%	0%	-2%	5%

Three entries from above, arranged by their value in RECQ1 helicase, high to low:
nr	SMILES	RECQ1 helicase
7	C/C(=N\O)c1sc(-c2ccccc2)nc1C	-1%
25	COC(=O)c1c(NC(=O)CC2SC(N)=NC2=O)sc2c1CCC(C(C)(C)C)C2 (stereo unspecified)	-2%
23	COc1ccc(Br)cc1/C=N/NC(=O)Cn1nnnc1N	-10%

Entries of single compounds from above. Screens in order: LMNA splice mod | SMN2 splice enh | RECQ1 helicase | L3MBTL1 inh | Tau ThT inhib | Luc counter | JMJD2E inh
Shown for `COc1cc(NC(=O)CN2C(=O)c3ccccc3S2(=O)=O)c(OC)cc1Cl` = -2% | -4% | i | -3% | -5% | 0% | -1%
Shown for `CCOc1ccccc1C(=O)Nc1cc(Cl)ccc1O` = -10% | -27% | -3% | 0% | u | 4% | 4%

Additional entries follow.
No.	Compound	LMNA splice mod	SMN2 splice enh	RECQ1 helicase	L3MBTL1 inh	Tau ThT inhib	Luc counter	JMJD2E inh
26	COc1ccc(CCNC(=O)Cn2cnc3c(nnn3Cc3ccccc3F)c2=O)cc1OC	-2%	-13%	1%	9%	-2%	2%	3%
27	C=CCN(CC=C)Cc1ccc(C(=O)OC)o1	2%	-5%	-5%	-2%	-8%	-8%	5%
28	COCCCn1c(SCc2nc3ccccc3c(=O)[nH]2)nc2ccccc2c1=O	-5%	2%	-11%	x	-15%	-3%	-3%
29	CN(C)C(/C=C/Nc1ccc(O)cc1)=C(C#N)C#N	-4%[46 µM]	-3%	7%	2%	-17%	-2%	4%
30	COc1ccc(-c2noc(N(C)CC(=O)Nc3cccc(C(F)(F)F)c3)n2)cc1	u	9%	-21%	-4%	12%	-10%	-2%
31	CCn1cc(C(=O)C(F)(F)F)c2ccccc21	4%	0%	-15%	11%	-5%	-1%	8%
32	COCCNC(=S)N=Nc1c(O)[nH]c2c(C)cc(C)cc12	-14%[46 µM]	-11%	i	-17%	u	-6%	0%
33	CC(C)Sc1nc(SCC(=O)NCc2ccco2)c2c3c(sc2n1)COC(C)(C)C3	22%	-1%	-1%	-1%	-17%	2%	u
34	OC(COCC(F)(F)C(F)(F)C(F)(F)C(F)F)Cn1c2ccccc2c2ccccc21 (stereo unspecified)	u	-62%[inhibitor][1.84 µM]	-1%	58%[activator]	-3%	-3%	-2%
35	COC(=O)CN1CCN(C(c2ccccc2)c2ccccc2)CC1	-8%	-4%	i	1%	-2%	0%	-4%
36	CCN(CC)c1ccc(C(=O)OCC(=O)Nc2ccc3[nH]c(=O)[nH]c3c2)cc1	23%[46 µM]	2%	i	-10%	u	1%	-14%
37	Cc1ccc(S(=O)(=O)N2CCN(C(=O)CCC(=O)NCc3ccc(F)cc3)CC2)cc1	5%	10%	1%	-2%	3%	2%	-4%
38	Cc1ccc(C(=O)NNC(=O)c2ccccc2-n2cccc2)cc1	17%[46 µM]	-6%	-2%	4%	-8%	-1%	-1%
39	O=[N+]([O-])c1ccc(Cl)c(/C=N/N2CCN(Cc3ccccc3Cl)CC2)c1	1%	0%	-9%	-8%	-22%	3%	4%
40	CCCN(CCC)CCCNC(=O)c1cc2c(=O)[nH]c3ccccc3c2n1C	-18%[46 µM]	-19%&12%	9%	x	-10%&-16%	-2%	u
41	CN1/C(=C\C=[N+](C)c2ccccc2)C(C)(C)c2ccccc21	2%	x	-15%	-7%	u	-2%	-6%
42	CCn1c(C)csc1=NC(=O)c1ccccc1	2%	-10%	i	10%	-6%	0%	-1%
43	O=C(Nc1cccc(C(F)(F)F)c1)N1CCC(c2nc(-c3ccc(F)cc3)no2)CC1	u	-73%[inhibitor]	u	16%	-13%	0%	2%
44	O=C(NC1CCCCC1)[C@H](O)[C@@H](O)C(=O)NC1CCCCC1	3%	8%	-10%	-2%	2%	-4%	4%
45	COc1ccc(CCN(C)C(=O)CSc2nc3ncc(Cl)cc3[nH]2)cc1OC	-1%[46 µM]	-5%	-1%	5%	-12%	-1%	0%
46	CCOC(=O)c1c(C)c(C(=O)NCc2cccnc2)c(C)n1CC	-7%	11%	-13%	-5%	2%	3%	0%
47	O=C(O)CC(Cc1ccccc1)C(=O)Nc1ccc([N+](=O)[O-])cc1 (stereo unspecified)	-5%	9%	0%	10%	0%	-3%	-1%
48	CC1CCN(CC(=O)Nc2ccccc2Sc2ccccc2)CC1	u	-34%[inhibitor]	-3%	26%	u	-1%	5%
49	Cc1oc(C(C)(C)C)cc1C(=O)N1CCN(c2ncccc2C(F)(F)F)CC1	x	x	-4%	-3%	-12%	x	-19%
50	CC(Oc1cccc2cccnc12)C(=O)N/N=C/c1ccccc1 (stereo unspecified)	18%[46 µM]	-21%	-8%	x	-6%	0%	1%
51	Cc1c(N=C2N=C(NC(=O)NC(C)(C)C)c3ccccc32)c(=O)n(-c2ccccc2)n1C	-14%[46 µM]	-6%	i	8%	-18%	0%	9%
52	N#Cc1nnn(-c2ccc(Cl)cc2)c1N	13%&18%[46 µM]	x	-13%&1%	2%&9%	1%&-9%	0%	1%&-21%
53	O=C(Oc1cccc(NC2=NS(=O)(=O)c3ccccc32)c1)c1ccncc1	-3%[46 µM]	-1%	i	4%	-15%	4%	-8%
54	Cc1ccc(C(=O)O/N=C(\N)c2ccc(Br)cc2)cc1	15%	10%	0%	x	-19%	-10%	4%
55	CCOC(=O)c1c(NC(=O)COC(=O)c2nc(Cl)ccc2Cl)sc2c1CCC2	7%	-14%	i	-6%	2%	0%	2%
56	C/C(=N\NC(=O)Nc1ccccc1)c1ccc2ccccc2c1	-4%	4%	-4%	-7%	u	0%	9%
57	Cc1ccccc1NC(=O)c1c([N+](=O)[O-])c(C(C)(C)C)nn1C	4%	-14%	4%	-1%	17%	-2%	7%

Not all compounds are listed; count on the stated rates, not on these rows.
